# Lassa entry: Lassa virus entry inhibition. Lassa virus pseudotyped entry inhibition, cell-based qHTS; control for the full effect not named in the record; many of its hits are not listed in these tables. Potency, µM (doses to about 49.2 µM), inactives show at the highest dose activity change, negative = inhibition, hits mostly inhibitors. 18,000 tested, 4.1% active; active = well fitted inhibition curve with a large enough effect; inconclusive = small, poorly fitted or top-dose-only effect; inactive = no such curve, though single readings can be large or run the other way; tested in HEK293 cells; further: luciferase read-out
# MARV entry inh: blocks Marburg virus binding or cell entry. Marburg virus pseudotype entry/binding inhibition, cell-based; control for the full effect not named in the record; many of its hits are not listed in these tables. Potency, µM (titrated, usually from 49.2 µM), for the others: at the top dose activity change, negative = inhibition, most hits filed as inhibitors. 18,000 tested, 6.5% active. AID 720532; active means well fitted inhibition curve with a large enough effect; inconclusive means small, poorly fitted or top-dose-only effect; inactive means no such curve, though single readings can be large or run the other way; tested in HEK293 cells; further: luciferase read-out
# Starred values were filed as active, the others as inactive; u = inconclusive; x = not tested or not shown; & = joins results of further samples; [ ] = dose if it differs, or a comment. On the % scale 0 is the no-effect control and ±100 the full control effect; potency means the concentration at half of the fitted maximal effect. This is a subset; rates above refer to the full screens.
Compound | MARV entry inh | Lassa entry
CC[C@H](C)[C@H](NC(=O)[C@H](Cc1ccc(O)cc1)NC(=O)[C@H](Cc1cnc[nH]1)NC(=O)[C@H](CCCNC(=N)N)NC(=O)[C@H](CC(C)C)NC(=O)[C@H](C)NC(=O)[C@H](CO)NC(=O)[C@H](Cc1ccc(O)cc1)NC(=O)[C@H](Cc1ccc(O)cc1)NC(=O)[C@H](CCCNC(=N)N)NC(=O)[C@H](C)NC(=O)[C@H](CCSC)NC(=O)[C@H](CC(=O)O)NC(=O)[C@H](CCC(=O)O)NC(=O)[C@H](C)NC(=O)[C@@H]1CCCN1)C(=O)N[C@@H](CC(N)=O)C(=O)N[C@@H](CC(C)C)C(=O)N[C@H](C(=O)N[C@H](C(=O)N[C@@H](CCCNC(=N)N)C(=O)N[C@@H](CCC(N)=O)C(=O)N[C@@H](CCCNC(=N)N)C(=O)N[C@@H](Cc1ccc(O)cc1)C(N)=O)[C@@H](C)O)[C@@H](C)CC | 5% | -3%
CCC(CCC(C)C1CCC2C3CC=C4CC(OC(C)=O)CC[C@@]4(C)C3CC[C@@]12C)C(C)C (stereo partly specified) | 2% | 4%
CCCC[P+](CCCC)(CCCC)Cc1ccc(NC(=O)[C@@H](Cc2ccc3ccccc3c2)NC(=NC2CCCCC2)NC2CCCCC2)cc1 | -2% | u
CC/C=C\C/C=C\C/C=C\CCCCCCCCCC(=O)O | 15%&-6% | 3%&5%
CC[C@@H]1C(c2cccc(Cl)c2)=NN(c2ccccc2)[C@H]1C(=O)N1CCOC1=O | -20% | -4%
C[C@@H]1C=CCCO[C@]12C(=O)N(Cc1ccc(F)cc1)c1ccccc12 | 0%[8.59 µM] | x
O=C1CC(C(=O)N2CCOc3ccc(CN4CCC(Oc5cccnc5)CC4)cc3C2)c2ccccc21 (stereo unspecified) | u | -3%
COC(=O)[C@H](Cc1ccccc1)NC(=O)O[C@H]1C(=O)c2cc(OC)ccc2O[C@@H]1c1ccc(OC)c(Br)c1 | u | 8%&-13%
CC(=O)[C@@H]1[C@H]2[C@H](C(=O)[C@H]3OC[C@@H]2O3)[C@H]2C=Cc3ccccc3N21 | -5% | u
O=C(O)/C=C/C=C/c1ccccc1 | -6% | -2%

# (continued)
Compound | MARV entry inh | Lassa entry
CC[C@H](C)[C@H](NC(=O)[C@H](CC(C)C)NC(=O)[C@@H](N)CO)C(=O)NCC(=O)N[C@@H](CCCCN)C(=O)N[C@H](C(=O)O)C(C)C | -9% | -4%
NC1=NC(=O)N2CC12 (stereo unspecified) | 20% | -1%
CN1CCc2cc(O)cc3c2C1Cc1ccc(O)c(O)c1-3 (stereo unspecified) | u | -12%
Cc1c(C(=O)NCc2ccc(F)cc2)sc2ncnc(NCC3CCCO3)c12 (stereo unspecified) | -2% | -1%
Cc1cnc(SCc2ccccn2)nc1C1CCCN(C(=O)c2cccc(-c3cccc(F)c3)c2)C1 (stereo unspecified) | u | u
CC(CCC(=O)O)C1CCC2C3C(=O)CC4CC(=O)CC[C@@]4(C)C3CC(=O)[C@]12C (stereo partly specified) | 3% | -24%
CCCCC/C=C\C/C=C\C/C=C\CCCCCCC(=O)NCCCC(=O)O | -20% | 2%
COc1ccc2c(c1)C(=O)[C@@H](OC(=O)Nc1cc(OC)c(OC)c(OC)c1)[C@H](c1ccc(OC)c(Br)c1)O2 | 12% | -25%
CN1CCN([C@@H]2C[S+](=O)([O-])N[C@@H]2COCc2ccccc2)CC1 | 24% | 4%
O=S(=O)(Cc1ccccc1)c1nnnn1C1CCCCC1 | -23% | -24%

# (more compounds)
Compound | MARV entry inh | Lassa entry
C[C@@H]1Cc2c(Cl)cc(C(=O)N[C@@H](Cc3ccccc3)C(=O)O)c(O)c2C(=O)O1 | u | u
CCCOC(=O)c1ccccc1O | 19% | 6%
O=C(O)c1ccc(-c2ccccc2Cl)o1 | 19%[107 µM] | 2%[107 µM]
Cc1ccccc1Nc1oc(-c2ccccc2)nc1CCc1ccccc1 | u | -1%
CON(C)C(=O)Nc1ccc(Br)cc1 | 4% | -15%
CCCCCCCC/C=C\CCCCCCCCCCCC(=O)O | 5% | -7%
Cc1cnc(-n2ncc(C(=O)NCc3ccncc3)c2C(C)C)nc1-c1ccc(F)cc1 | 2% | 0%
C[C@@H]1C(c2ccc(F)cc2)=NN(c2ccccc2)[C@H]1C(=O)N1CCOC1=O | -5% | -17%
CC(=O)OC[C@@]1(O)C[C@]23CCC4c5ccoc5CC[C@@]4(C)C2CCC1C3 (stereo partly specified) | -18% | 7%
COc1ccc(CN2C[C@H](Sc3nc4ccccc4[nH]3)C[C@H]2C(=O)N2CCCN(C)CC2)cc1C | u | u

# The results go on.
Compound | MARV entry inh | Lassa entry
O=c1c(O)cc(C2Oc3cc(O)cc(O)c3CC2O)cc2c(C3Oc4cc(O)cc(O)c4CC3O)cc(O)c(O)c12 (stereo unspecified) | 13µM* | 5%
Cc1cnc(-n2ncc(C(=O)NCc3ccccn3)c2C2CC2)nc1-c1cccs1 | 6% | u
Cc1cc(-c2ccnc(-n3ncc(C(=O)NCC4COCCO4)c3C)n2)c(C)s1 (stereo unspecified) | u | -8%
FC(F)(F)COCC(F)(F)F | 4% | -17%
CC(=O)OC1CC[C@@]2(C)C(=CC[C@H]3[C@@H]4CC[C@H](C(C)=O)[C@@]4(C)CC[C@@H]32)C1 (stereo partly specified) | -29% | -2%
CC1(OC(=O)C2CCCC2)C(=O)C=C2C=C(C3CC3)OC=C2C1=O (stereo unspecified) | -5% | 7%
Cc1ccccc1NC(=O)OCCN1CCN(Cc2ccccc2)CCC1=O | 4%&10% | 0%&9%
CCCN(CCC)C1CCc2cccc(O)c2C1 (stereo unspecified) | 22µM* | 32µM*
Cc1ccc2[nH]c(C)cc(=O)c2c1 | 3%[107 µM] | -9%[107 µM]
CC(C)C[C@H](NC(=O)[C@@H](COC(C)(C)C)NC(=O)[C@H](Cc1ccc(O)cc1)NC(=O)[C@H](CO)NC(=O)[C@H](Cc1c[nH]c2ccccc12)NC(=O)[C@H](Cc1cnc[nH]1)NC(=O)[C@@H]1CCC(=O)N1)C(=O)N[C@@H](CCCN=C(N)N)C(=O)N1CCC[C@H]1C(=O)NNC(N)=O | 10%&-13% | -10%&-5%

# Following part.
Compound | MARV entry inh | Lassa entry
CC(C)C[C@@H](CC(=O)N[C@@H](CCC(=O)O)CC(=O)O)NC(=O)[C@@H]1CCCC[C@H]1NC(=O)C[C@H](CCCN)NC(=O)C[C@H](Cc1ccccc1)NC(=O)[C@@H]1CCCC[C@H]1N | -7% | -8%
COC(=O)N[C@@H](C=Cc1ccccc1)[C@@H](C)[N+](=O)[O-] | 2%[8.59 µM] | -9%[8.59 µM]
CCCCCCCCCCCCCCCC(=O)OCCC1CCN(CCCN2c3ccccc3Sc3ccc(S(=O)(=O)N(C)C)cc32)CC1 | -13% | 21%
COc1ccccc1-c1cc(NCc2cccnc2)ncn1 | 11% | 9%
COC(=O)c1cc2c(cn1)[nH]c1ccccc12 | 53%[activator] | -2%
O=C(/C=C/c1ccc(O)cc1)c1cccs1 | 31%[activator] | 3%
O=C1NCN(c2ccccc2)C12CCN(C[C@H]1COc3ccccc3O1)CC2 | 2% | -9%
CCCCC/C=C\C\C=C/C=C/C=C/[C@@H](SC[C@H](N)C(=O)O)[C@@H](O)CCCC(=O)O | 27% | -4%
O=C(Cn1cc(COc2ccc(Br)cc2)nn1)c1ccc(O)cc1 | 1% | -17%
CC(C)NC[C@H](O)c1ccc2ccccc2c1 | u | -17%

# (listing goes on)
Compound | MARV entry inh | Lassa entry
CCOC(=O)C1CSCCS(=O)(=O)N1Cc1ccccc1C (stereo unspecified) | 12% | 20%
N#Cc1cccc(CS(=O)(=O)c2nnnn2C2CCCCC2)c1 | -16% | -3%
NC(=NCCC[C@H](N)C(=O)O)N[N+](=O)[O-] | -13% | -8%
COC(=O)C1=C(C)N(Cc2ccco2)C(=O)N[C@H]1c1cccc(C(F)(F)F)c1 | -7% | -19%
O=S1(=O)c2ccc(Br)cc2OC2CCCN1C2 (stereo unspecified) | 14% | 16%
C=C[C@](C)(O)CCC1C(=C)CC(O)C2C(C)(C)CCCC12C (stereo partly specified) | u | u
O=C(Nc1ccc(C(=O)N2CCCC2)cc1)C1CC1 | 15% | 11%
CC(CN)CC(=O)O (stereo unspecified) | -1% | -5%
O=S(O)S(=O)(=O)O | 2% | 0%
N#Cc1ccccc1OCc1cn(CC(=O)c2ccc(O)cc2)nn1 | 103%[activator] | -3%

# (more compounds)
Compound | MARV entry inh | Lassa entry
OCc1cccc(Cl)c1Cl | 8% | 3%
O=C(O)c1cc(N=Nc2ccc(O)c(C(=O)O)c2)ccc1O | 5% | -5%
CCC1(c2cnc[nH]2)Cc2ccccc2C1 | 13%&16% | u
COc1cc(=O)n(C)c2c(OCC3OC(C)(C)OC3(C)C)cccc12 (stereo unspecified) | 3% | 1%
C[C@@H]1O[C@@H](OC[C@H]2O[C@@H](Oc3c(-c4cccc(O)c4O)oc4cc(O)cc(O)c4c3=O)[C@H](O)[C@@H](O)[C@@H]2O)[C@H](O)[C@H](O)[C@H]1O | 23% | -8%
COc1cccc([C@@H]2Oc3ccc(OC)cc3C[C@H]2OC(=O)Nc2cc(OC)c(OC)c(OC)c2)c1 | -3% | -7%
C=CCSSSCC=C | 6% | 2%
CCCCN1CC(COCc2ccccc2)Oc2cccc(Oc3ccc(F)cc3)c2S1(=O)=O (stereo unspecified) | u | x
COc1ccc(C2CC(=O)c3c(O)cc(OC4OC(COC5OC(C)C(O)C(O)C5O)C(O)C(O)C4O)cc3O2)cc1O (stereo unspecified) | -14% | 1%
CCCCC/C=C\C/C=C\C/C=C\C=C\C(O)CCCC(=O)O (stereo unspecified) | 1% | -4%

# Later entries
Compound | MARV entry inh | Lassa entry
C=C1CC[C@H](O)C/C1=C\C=C1/CCC[C@]2(C)[C@@H]([C@H](C)CCCC(C)C)CC[C@@H]12 | -4% | u
COc1ccc(-n2c(CNC(=O)c3ccccc3C(F)(F)F)nnc2SC)cc1 | -18% | u
COc1cc2c(Nc3ccc(NC(=O)c4ccccc4)cc3)ncnc2cc1OCCCN1CCOCC1 | u | 10%
CCCCCCCCCCCCCC(=O)N[C@@H](C)[C@H](O)c1ccccc1 | 5%&31% | -13%&1%
C/C(N[C@@H]1CSCC1O)=C1/C(=O)CC2[C@@H]1C2(C)C (stereo partly specified) | 11% | 2%
Cc1nc(NCc2cnn(C)c2C)sc1-c1ccn(CC2COc3ccccc3O2)n1 (stereo unspecified) | -16% | -7%
O=C1CC(C(=O)N2CCCC(c3nc(-c4ccncc4)ncc3-c3ccccc3)C2)C2(CCCCC2)O1 (stereo unspecified) | -11% | -4%
COc1c2c(c(C(=O)/C=C/C(C)=C/c3ccccc3)c3c1OCO3)CCN(C)C2 | 16µM* | -11%
COc1cc2ncnc(Nc3cccc(Br)c3)c2cc1OC | 3% | -20%
CC1(OC(=O)C2CCCC2)C(=O)C=C2C=C3CCCCN3C=C2C1=O (stereo unspecified) | -7%[8.59 µM] | -25%[8.59 µM]

# (cont.)
Compound | MARV entry inh | Lassa entry
Cc1cccnc1-c1cccc2c1OC(CNC(=O)/C=C/c1cccs1)C2 (stereo unspecified) | -2% | 3%
CCCCCCCCCCCCCCCC(=O)NCCO | 7%&27%&-2%&2%&-6% | 0%&3%&3%&-4%&-5%
CC1(C)OC2C[C@](O)(C(N)=O)C[C@H](O)[C@H]2O1 (stereo partly specified) | 10% | 0%
CC(=O)OC1CC[C@@]2(C)C3CC[C@]4(C)C(=O)CCC4C3CC[C@H]2C1 (stereo partly specified) | 0% | -13%
CN(C)CCCOc1c2ccccc2n(Cc2ccccc2)[n+]1[O-] | 5% | -13%
CCCC(=O)OCC[N+](C)(C)C | -10% | -1%
COc1ccc(C2Oc3cc(OC)cc(OC)c3CC2O)cc1 (stereo unspecified) | 3% | 6%
COc1ccc(-c2nc(-c3ccccc3)oc2NC(C)c2ccccc2)cc1 (stereo unspecified) | -6%[8.59 µM] | 41%[activator][8.59 µM]
CC(C)C1C(=O)N(Cc2cn(CCC3OCCCO3)nn2)CCS(=O)(=O)N1Cc1ccc(-c2ccncc2)cc1 (stereo unspecified) | -19% | -35%
O=C(O)/C=C/c1ccc(Cn2ccnc2)cc1 | 6%[17.8 µM] | 3%[17.8 µM]

# Some of the entries so far, field by field:
compound: CC(=O)OC1CC[C@@]2(C)C3CC[C@]4(C)C(=O)CCC4C3CC[C@H]2C1 (stereo partly specified)
  MARV entry inh = 0%
  Lassa entry = -13%
compound: CN(C)CCCOc1c2ccccc2n(Cc2ccccc2)[n+]1[O-]
  MARV entry inh = 5%
  Lassa entry = -13%

# Next structures:
Compound | MARV entry inh | Lassa entry
C=C[C@@]1(C)CC[C@H]2C(=CC[C@@H]3[C@]2(C)CCC[C@@]3(C)C(=O)O)C1 | -14% | -7%
CC1=C(C(=O)Nc2cc(Cl)c3[nH]ncc3c2)C(c2ccc(C(F)(F)F)cc2)CC(=O)N1 (stereo unspecified) | -33% | -20%
Cc1cccc(CNc2ncnc3ccc(-c4ccc5c(c4)OCO5)cc23)c1 | 2% | -14%
CC1(C)S[C@@H]2[C@H](NC(=O)[C@@H](N)c3ccc(O)cc3)C(=O)N2[C@H]1C(=O)O | 19%[17.8 µM] | -5%[17.8 µM]
Cc1csc(-c2nc3ccccc3n2C)n1 | 22% | 29%
O=C(O)CCc1c(C(=O)O)[nH]c2cc(Cl)cc(Cl)c12 | 0% | -1%
O=C(NCC1(N2CCOCC2)CCCCCC1)c1cnn(-c2nccc(-c3ccco3)n2)c1C1CC1 | -18% | -4%
CC[C@@H]1/C=C(\C)C[C@H](C)C[C@H](OC)[C@H]2O[C@@](O)(C(=O)C(=O)N3CCCC[C@H]3C(=O)O[C@H](/C(C)=C/[C@@H]3CC[C@@H](O)[C@H](OC)C3)[C@H](C)[C@@H](O)CC1=O)[C@H](C)C[C@@H]2OC | u | u
